Assay outcomes: PubChem BioAssay, ICCB-Longwood Screening Facility, Harvard Medical School
Ba CapD inh: Bacillus anthracis CapD inhibitors, primary screen, biochemical, fluorescence intensity; CapD gamma-glutamyltranspeptidase (Bacillus anthracis Ames Ancestor); purified CapD enzyme, fluorescence intensity read-out; active compounds read low; some hits fall short of the stated cut; z-score (no concentration beside the values); 0.23% of 140,000 active; AID 492967, 2010;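 active = z-score under -4 in either of two replicates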;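 also: stock transfer was 100 nL into about 40 µL; score is relative to mean and spread of the plate; one replicate is shown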
AID504770: growth inhibition of E. coli YBA685, primary screen, V. cholerae RctB inhibitors; E. coli YBA685 rctB-dependent plasmid, OD600 growth, 3 h; active compounds read low; z-score (concentration not given with the values); 0.27% of 130,000 active; AID 504770, 2011;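 active = z-score under -2 on both plates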;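 also: wells of about 30 µL received 100 nL stock; score is relative to mean and SD of the test wells; the first replicate is given; strong numbers were not always called active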
The depositor's hits bear a star; · = no result given.

SMILES	Ba CapD inh	AID504770
CN(C)c1ccc(C(CNC(=O)c2ccc3c(c2)OCO3)N2CCc3ccccc32)cc1 (configuration not stated)	-0.61	-0.85
CCCN(CC(=O)Nc1ccccc1OC)C(=O)c1ccncc1	·	0.6
CC(C)C(NC(=O)C1CCCCC1)C(=O)O (configuration not stated)	0.21	0
CCCCN(C)S(=O)(=O)c1cc(-c2cc(C(=O)OCC)no2)ccc1OC	0.085	0.1
OC(CNC1CCCCC1)Cn1c2ccc(Cl)cc2c2cc(Cl)ccc21 (configuration not stated)	1.2	·
Cc1cccc(NC(=O)c2ccc(Br)o2)c1	-0.42	-0.5
CC(NC(=O)/C=C/c1ccc2c(c1)OC(F)(F)O2)C(=O)OC(C)(C)C (configuration not stated)	0.29	·
Cc1cc(Oc2ccc(=O)n(C)n2)nc(=S)[nH]1	0.12	0.05
Cc1cc(N2CCN(S(=O)(=O)c3ccccc3)CC2)c2ccccc2n1	-0.71	0.45
CCCS(=O)(=O)/C(C#N)=C/Nc1ccc2c(c1)OCCO2	-0.27	0.15
COc1ccc(S(=O)(=O)NCC(C)(C)SCc2ccc(Cl)cc2)cc1	-0.56	·
N#Cc1c(N)sc2c1CCN(c1ncc(C(F)(F)F)cc1Cl)C2	2.1	·
O=c1cc(CSc2n[nH]c(=O)n2C2CC2)c2ccc(O)cc2o1	-1.5	2
O=C(O)CCC1=NN2C=Nc3sc4c(c3C2NC1=O)CCCC4 (configuration not stated)	-0.27	-0.2
O=C1CC(c2ccccc2)c2ccc3ccccc3c2N1 (configuration not stated)	4.5	·
c1ccc(-c2cs/c(=N\c3ccccn3)n2-c2ccccc2)cc1	-0.03	·
COC(=O)/C=C/S(=O)(=O)c1ccc2ccccc2c1	-0.3	-1.6
O=c1cc(O)c2ccccc2[nH]1	-0.2	-0.85
O=C(COC(=O)c1cc(-c2ccco2)nc2ccccc12)c1ccccc1	·	-0.6
Cc1sc2ncn(CC(=O)NC3CCCCCC3)c(=O)c2c1S(=O)(=O)N1CCN(c2ncccn2)CC1	0.22	-1.4
Nc1nc(-c2nccs2)cc(C(F)(F)F)n1	9	-0.2
COc1ccc(-c2cc(C(F)(F)F)n3ncc(C(=O)Nc4ccc5c(c4)OCO5)c3n2)cc1OC	0.38	·
Cc1ccc(-c2nc3ccc(Cl)cn3c2Nc2ccc3c(c2)OCO3)o1	0.26	0.05
COc1cc(/C=C2/C(=N)N3C(c4ccccc4)=CSC3=NC2=O)ccc1OCCOc1cccc(C)c1	0.32	·
CC(=O)Nc1sc2c(c1C(c1ccccn1)N1CCN(C)CC1)CCCC2 (configuration not stated)	0.28	0.25
O=C(C1CCCN(c2ncnc3c2nc2n3CCCCC2)C1)N1CCCCCC1 (configuration not stated)	0.69	-0.05
Cc1ccc(N(C(=O)c2ccccc2C)S(=O)(=O)c2ccc(Cl)cc2)cc1	0.065	1.2
CCCCn1c(=O)c(C(=O)Nc2nc3ccc(F)cc3s2)c(O)c2ccccc21	-0.48	·
O=C1C2=C(NC3=C(C(=O)c4ccccc43)C23C(=O)Nc2ccccc23)c2ccccc21	-0.055	·
Cc1ccc(C(=O)N2CCN(c3ccccc3)CC2)cc1	·	1.4
Cc1cc(NC(=S)N2CCCCC2)ccc1Br	0.87	·
Fc1cccc(CSc2nnc(-c3ccc(C(F)(F)F)cc3)o2)c1	-0.11	·
S=C1SCN(C2CCCCC2)CN1C1CCCCC1	-0.97	·
Cc1nc(NC(=O)COC(=O)c2cccn2C)c(Cl)cc1Cl	·	-0.8
Cn1nc(C(=O)NCc2ccccc2)cc1C(=O)NCc1ccccc1	0.55	-0.2
COc1ccc(-c2nnn(CN(C)Cc3sccc3C)n2)cc1OC	·	0.2
O=C1C(=O)N(CCO)C(c2cccc(F)c2)/C1=C(/O)c1ccc(Br)cc1 (configuration not stated)	-0.58	·
NS(=O)(=O)c1ccc(NNC(=O)C2CCN(C(=O)OCc3ccccc3)CC2)cc1	0.43	0.35
COc1ccc(-c2nc(CSCC(=O)O)c(C)o2)cc1	-1.1	-0.95
CCOc1nnc(-c2ccc(C)c(S(=O)(=O)N(C)C)c2)c2ccccc12	1.1	·
O=C(C1CCN(c2ncc(C(F)(F)F)cc2Cl)CC1)N1CCCc2ccccc21	·	0.3
CC(Oc1cccc(Cl)c1)C(=O)N1CCCCC1 (configuration not stated)	·	-0.4
Nc1ncnc2c1ncn2[C@@H]1O[C@H](CO)[C@@H](O)[C@H]1O	·	0.2
Cc1ccc(C(C)C)c(OCC(=O)Nc2sc3c(c2C#N)CCCCC3)c1	-0.23	·
COc1ccc(/C=C(\C#N)S(=O)(=O)c2ccc(C)cc2)cc1Cl	0.86	0.5
CCn1c(SC(C)c2nc3ccccc3s2)nnc1-c1cccc(S(=O)(=O)N2CCCC2)c1 (configuration not stated)	·	0.4
N/C(=N\O)c1ccc(-c2csnn2)cc1	-0.09	·
CCOC(=O)Nc1ccc2c(COC(=O)c3nccnc3N)cc(=O)oc2c1	·	-1.1
Cc1c(Cl)c([N+](=O)[O-])nn1CC(=O)Nc1cc(Oc2cccnc2)cc([N+](=O)[O-])c1	-0.095	·
COc1ccc(CNC(=O)Cc2c(C(=O)O)[nH]c3ccc(Cl)cc23)c(OC)c1	0.62	-0.3

(continued)
SMILES	Ba CapD inh	AID504770
COc1cc(CN2CCCCC2COC(=O)N2CCN(c3cc(C(F)(F)F)nc4cc(C(C)(C)C)nn34)CC2)cc2c1OCO2 (configuration not stated)	93	·
C=CCN1C(=O)C2C3C=CC(C3)C2C1=O (configuration not stated)	-0.16	0.05
COc1ccc(C(=O)COC(=O)c2ccccc2SCC(=O)N(C)C)cc1F	·	-0.65
NC1CCN(c2nccc(C(F)(F)F)n2)CC1	1	·
Cc1ccc2c(c1)N(CC(=O)O)C(=O)CO2	-0.21	0.15
N#Cc1c(N)c(C#N)c(=S)n(CC2CCCO2)c1N (configuration not stated)	0.57	0.05
Cc1ccc(S(=O)(=O)N2C=Cc3ccccc3C2C#N)cc1 (configuration not stated)	10	-1.2
Cc1ccc(CSc2ncnc3sc(C)c(C)c23)cc1	0.51	0.1
O=C(O)c1ccc(OC2CSC2)cc1	3.5	-0.25
C=CCNCc1cccs1	·	1.6
CC(=O)NC1C(=O)N=C(SCC(=O)Nc2c(C)cccc2C)NC1=O (configuration not stated)	0.67	-1.1
CCc1c(C)c2cc3c(C)coc3cc2oc1=O	8.2	0.25
Cc1cc(C)c2c(=O)[nH]c(SCC(=O)N(C)C)nc2n1	17	-1.1
Cc1ccc(C)c(OC(=O)CCN2C(=O)c3ccccc3C2=O)c1	0.12	1.1
CCOC(=O)c1ccc(N2N=C(C(F)(F)F)/C(=C/c3ccc(N(C)C)cc3)C2=O)cc1	-0.39	·
CCn1c(=O)c(=O)[nH]c2cc(C(=O)NC3CC3)ccc21	·	-0.65
O=C(c1ccc(-c2nc3ccccc3s2)o1)N1CCCCCC1	·	0.25
COc1cc(/C=N/NC(=S)NC2CC3CCC2C3)cc(OC)c1OC (configuration not stated)	-0.88	·
CCCn1nc(NS(C)(=O)=O)c2cc3ccccc3nc21	4.2	0.1
CCOC(=O)COn1c(C)c(C(=O)OCC)c2c3nonc3ccc21	·	-0.65
COc1ccc(NC(=O)CN2CCC(n3c(C)nc4cc(F)ccc43)CC2)c(OC)c1	·	-0.2
CCN(CC)Cc1c[nH]c2ccccc12	·	0
Cc1[nH]n(-c2ccccc2)c(=O)c1C(=O)Nc1ccc(Cl)cc1	·	0.25
CCn1c2ccccc2c2cc(CN3CCC(NC(=O)OCCOc4ccc([N+](=O)[O-])cn4)C3)ccc21 (configuration not stated)	0.96	·
Nc1ccc(Oc2ccc3c(c2)OCO3)cc1	·	0.1
Cc1ccccc1NC(=O)CN1CCC(n2nnc3ccccc32)CC1	·	-0.35
O=C(c1ccccc1)n1nccc1-c1cc(-c2ccccc2)no1	0.075	0.6
CNC(=O)NC(=O)CN1CCCc2cc(C)ccc21	·	-0.7
COc1ccc(/C(COc2ccccc2O)=N\O)cc1	·	-0.25
CC1=NN(C(=S)c2ccc(C)cc2)C(C)(O)C1CC(C)C (configuration not stated)	-1.1	2.3
CCCn1c(SCC(N)=O)nnc1C(C)C	·	-1
NNC(=S)Nc1ccc2c(c1)OCCO2	-0.69	·
CCCN(CCC)S(=O)(=O)c1ccc(C(=O)N2CCC3c4ccccc4C(=O)N3C2)cc1 (configuration not stated)	-0.15	·
COC(=O)CC1SCCNC1=O (configuration not stated)	-0.19	0.55
C=CC[C@H]1Cc2ccccc2[C@H](CC=C)N1	0.33	-0.55
O=C(NCc1ccccc1)c1ccc2c3c(onc13)-c1ccccc1C2=O	0.22	·
O=c1cc(-c2ccccc2)oc2cc(Cl)cc(Cl)c12	0.27	-0.35
COCCNC(=O)c1ccc(-c2cnn(C)c2)nc1	1.6	·
O=C(O)COc1cccc(-c2nc3ccccc3s2)c1	12	-0.9
C/C(=N\O)c1cc(-c2ccccc2)c(C(F)(F)F)s1	-0.46	1.5
CC/C(=N\OC(=O)c1cccc(C(F)(F)F)c1)c1ccc(-c2ccccc2F)cc1	0.7	·
Cc1ccccc1NC(=O)c1ccc(CN2CC(=O)N3CCCCC3C2=O)cc1 (configuration not stated)	-0.2	-0.7
CC(=O)ON1C(=O)c2cccc3c(Br)ccc(c23)C1=O	46	-1.1
O=C(CCN1C(=O)c2ccccc2C1=O)OCc1ccc(F)cc1	-0.72	-0.9
Cc1c(N=C2SC(CC(=O)O)C(=O)N2/N=C/c2ccccc2O)c(=O)n(-c2ccccc2)n1C (configuration not stated)	-0.23	-0.55
O=C(O)CSc1nc(-c2ccccc2)nc2c1CCCC2	·	-0.55
Cc1cnc2c(c1)N1CCC2CC1	·	2.1
Cc1onc(-c2c(Cl)cccc2Cl)c1C(=O)Nc1cccc(Cl)c1	0.19	·
COC[C@@H]1N=C(C)OC1c1ccccc1 (some centres not stated)	-0.11	1.9
Cn1c2ccc(Br)cc2c2nnc(SCc3ccc4nonc4c3)nc21	0.11	0

Remaining list, next part
SMILES	Ba CapD inh	AID504770
Nc1nc(-c2ccc3c(c2)CC(=O)N3)cs1	·	0.25
Cc1cc(S(=O)(=O)N2CCN(C/C=C/c3ccccc3)CC2)c(C)cc1Cl	-0.61	·
CC1(C)CC(=O)C2=C(C1)C(c1cccnc1)c1c([nH]c(=O)[nH]c1=O)N2 (configuration not stated)	0.085	1.5
Cc1occc1-c1nnc(SCC(=O)N(C)C2CCCc3ccccc32)n1C (configuration not stated)	·	0.75
O=C(CCn1c(=S)oc2ccccc21)Nc1cccc(O)c1	-0.07	2.3
Cc1ccc(C(=O)NC(=S)N2CCNC(=O)C2)cc1I	-0.02	2.2
NN/C(N)=N/C(N)=Nc1cccc(F)c1	-0.075	·
COc1ccc2[nH]c(C(=O)N3CCCN(Cc4ccccc4)CC3)cc2c1	44	1.2
O=C(COc1cccc2c1CCN(Cc1ccccc1)C2=O)N1CCCCCC1	·	0.65
CCOc1ccc(Cl)cc1S(=O)(=O)N1CCOCC1	-0.17	0.9
C=CCc1ccccc1OCC(O)Cn1cnc2ccccc21 (configuration not stated)	1	-0.45
CCC(C)(C)c1ccc(S(=O)(=O)NCC(C)(c2ccccc2)c2ccccc2)cc1	-0.41	·
O=C(NCc1ccc(C(F)(F)F)cc1)c1ccc(F)cc1	-0.35	-0.4
Cc1ccccc1C1C2=C(CCCC2=O)Nc2c1c(=O)[nH]c(=O)n2-c1ccccc1 (configuration not stated)	2	2.3
CCCOc1ccccc1C1NC(=O)NC(C)=C1C(=O)OCCOc1ccccc1 (configuration not stated)	-0.35	·
CCCn1nc(C(=O)N(C)Cc2ccc(OC)cc2OC)c2ccccc2c1=O	·	0.45
O=C(c1cc2ccccc2oc1=O)N1CCN(Cc2ccc3c(c2)OCO3)CC1	0.15	-0.8
O=C(NCc1cccc(C(F)(F)F)c1)c1ccccn1	·	-0.35
COc1ccc(C2CC(=O)C(C=NCCN3CCNCC3)=C(O)C2)cc1 (configuration not stated)	-0.42	1.1
O=C(NC1CC1)c1cc2c(=O)[nH]c3ccccc3c2s1	1.9	-0.3
CC(C)C(=O)Nc1ccc(-c2nc3cc(C(C)C)ccc3o2)cc1	51	0.65
COc1ccccc1/C=C1/Sc2ccc(C(=O)N3CCN(c4ncccn4)CC3)cc2N(C)C1=O	0.67	0.6
COc1cccc(CCN2CCCC2)c1N	-0.27	·
CSc1cccc(NC(=S)NCc2cccn2C)c1	17	-0.55
CCNC(=O)n1cc(-c2cnccn2)c(-c2ccncc2)n1	-1.1	·
